Assay outcomes from PubChem.
gsp ag = qHTS for Agonist of gsp, the Etiologic Mutation Responsible for Fibrous Dysplasia/McCune-Albright Syndrome: qHTS; gsp mutant cells, cAMP HTRF, 30 min; control for the full effect not named in the record; Potency, µM (series often up to 76.9 µM), for the others: top-dose activation (cAMP increase), hits mostly activators; 0.13% of 340,000 active; AID 624287, 2012; active = well fitted activation curve with a large enough effect; inconclusive = small, poorly fitted or top-dose-only effect, or another doubt; inactive = no such curve, though single readings can be large or run the other way; cell line not stated here;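 further: phosphodiesterase inhibitor Ro 20-1724 added with compounds to block cAMP breakdown; potency means the concentration at half of the fitted maximal effect; nearly all actives have a fitted effect of over 60% in size; about a fifth of the inactives were tested at one dose only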
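Cells stably selected in G418 were plated at 2000/well, grown 16-24 hr, then given compounds in DMSO with the PDE inhibitor […] (300 uM solution added) for 30 min at 37C; cAMP was read by HTRF.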
ClpP mod = qHTS Assay for Activators of ClpP | ATP-dependent Clp protease proteolytic subunit (Bacillus subtilis (strain 168)), P80244 | purified B. subtilis ClpP, FRET peptide cleavage, 20 min | Potency, µM (top dose mostly 57.5 µM), without a hit: at the highest dose activity change, negative = active | 1.9% of 340,000 active; active = well fitted falling curve with a large enough effect; inconclusive = small, poorly fitted or top-dose-only effect; inactive = no such curve, though single readings can be large or run the other way; further: potency means the concentration at half of the fitted maximal effect; the source files actives as falling curves though it sought activators and does not explain the sign; nearly all actives have a fitted effect of over 65% in size; many hits overshoot -100%
Target sequence (P80244 whole entry, looked up): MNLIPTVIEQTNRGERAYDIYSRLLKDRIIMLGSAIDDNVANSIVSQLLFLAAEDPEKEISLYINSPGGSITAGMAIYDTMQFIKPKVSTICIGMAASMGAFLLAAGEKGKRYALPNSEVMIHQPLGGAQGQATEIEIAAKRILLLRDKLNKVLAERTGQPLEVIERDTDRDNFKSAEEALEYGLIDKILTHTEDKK
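FRET quenching reversal measured ClpP activation: 10 microg/mL B. subtilis ClpP at pH 8 with the FRET-FV decapeptide, read at 430 nm after 320 nm excitation. The 20-min minus 0-min signal was scaled between DMSO/no-enzyme wells and ADEP (5.8 microM final).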
gsp antagonist = qHTS for Antagonists of gsp, the Etiologic Mutation Responsible for Fibrous Dysplasia/McCune-Albright Syndrome: qHTS | gsp-mutant cells, cAMP HTRF, 30 min; control for the full effect not named in the record | Potency, µM (series often up to 76.9 µM), without a hit: at the highest dose activity change, negative = inhibition, most hits filed as inhibitors | 0.4% of 340,000 active; active = falling curve of any shape with a large fitted effect; inconclusive = falling curve, mostly with a smaller effect; inactive = flat or rising curve; cell line not stated here;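 further: intracellular cAMP measured with PDE inhibitor Ro 20-1724 present during compound exposure; potency means the concentration at half of the fitted maximal effect; on the % scale 0 is the no-effect control and ±100 the full control effect; nearly all actives have a fitted effect of over 65% in size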
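HTRF cAMP read-out (cAMP-d2 plus anti-cAMP antibody-K in lysis buffer, 30 min RT). Before lysis, cells are exposed to compounds with […] for 30 min at 37C in DPBS containing Ca/Mg, BSA and Tween 20.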
Menin MLL FP FL = qHTS Assay for Inhibitors Targeting the Menin-MLL Interaction in MLL Related Leukemias: Competition With Fluorescein Labeled MLL-derived Peptide. Fluorescence polarization, fluorescein-MLL peptide displacement from menin. FP activity change, % at 61.4 µM. 290,000 tested, under 10 active. AID 1766, 2009; inconclusive = falling polarisation curve, or a change in total fluorescence; inactive = total fluorescence flat and polarisation flat or rising; no compound was filed as active; the % refers to the polarisation; negative = inhibition;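 further: % of control where 0% means no effect; inhibitors lower the polarisation; unlabelled MLL peptide was the positive control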
PINK1 modulator = A Quantitative High throughput Screen to Identify Chemical Modulators of PINK1 Expression; 0.2% of 410,000 active; PINK1 immunofluorescence, high-content cytometry, 24 h; Potency, µM (highest dose often 76.6 µM), without a hit: at the highest dose activation (PINK1 increase), hits mostly activators; active = well fitted activation curve with a large enough effect; inconclusive = small, poorly fitted or top-dose-only effect; inactive = flat fitted curve, though single readings scatter; cell line not stated here;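 further: potency means the concentration at half of the fitted maximal effect; % of control where 0% means no effect; nearly all actives have a fitted effect of over 65% in size; a mitochondrial uncoupler was the plate control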
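Decision-based qHTS: stable cells, 24 h exposure to five compound concentrations, CCCP as control. Fixed cells stained for PINK1 plus nuclear, mitochondrial and cell markers, cytometer read.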
Sfp PPTase inh = qHTS Assay for Inhibitors of Bacillus subtilis Sfp phosphopantetheinyl transferase (PPTase); 4'-phosphopantetheinyl transferase ffp (Bacillus subtilis), Q9F4F7; 3.5% of 310,000 active; Biochemical Sfp PPTase activity, qHTS; AID 1490, 2009; Potency, µM, inactives show max response, negative = inhibition, most hits filed as inhibitors; active means well fitted inhibition curve with a large enough effect; inconclusive means small, poorly fitted or top-dose-only effect, or another doubt; inactive means no such curve, though single readings can be large or run the other way;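 further: the enzyme is Sfp with the accession as filed and its product quenches rhodamine fluorescence; potency means the concentration at half of the fitted maximal effect; 0% = enzyme reaction without inhibitor and -100% = no enzyme wells; top concentration of the series not given in the record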
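Buffer: 50 mM Hepes-Na pH 7.6, 10 mM MgCl2, 0.01% Nonidet P-40, 0.01% BSA. Enzyme 15 nM, pre-exposed to compound 15 min; substrates then added and fluorescence change tracked over 30 min.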
D2 ag = Beta-Arrestin HTS for Positive Allosteric Modulators of the Human D2 Dopamine Receptor: Agonists; D(2) dopamine receptor (Homo sapiens), P14416; DiscoveRx PathHunter D2 beta-arrestin, luminescence, 90 min; 100% = 57 uM dopamine signal; activation, % (concentration not given with the values); 0.084% of 360,000 active; AID 624465, 2012; in the data active = activation above about 40%; inconclusive = about 15% to 40%; inactive = below about 15%; further: compound concentration not given in the record; the text of the record calls up to 30% inactive
Target sequence (P14416 whole entry, looked up): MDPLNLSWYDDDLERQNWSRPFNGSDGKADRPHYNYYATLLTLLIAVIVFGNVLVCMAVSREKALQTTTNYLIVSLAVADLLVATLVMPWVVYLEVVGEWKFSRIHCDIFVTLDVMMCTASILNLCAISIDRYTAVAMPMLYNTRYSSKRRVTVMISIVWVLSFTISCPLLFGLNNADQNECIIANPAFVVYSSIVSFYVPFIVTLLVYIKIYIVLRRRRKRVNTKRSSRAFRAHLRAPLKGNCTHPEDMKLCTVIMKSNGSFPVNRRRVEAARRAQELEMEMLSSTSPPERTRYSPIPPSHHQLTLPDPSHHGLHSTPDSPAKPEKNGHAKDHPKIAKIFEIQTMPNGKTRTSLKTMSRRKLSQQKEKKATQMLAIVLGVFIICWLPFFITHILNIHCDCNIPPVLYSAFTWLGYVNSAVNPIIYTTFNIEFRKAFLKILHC
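DiscoveRx PathHunter D2 beta-arrestin cells (2,100/well) attached overnight, then compound-stimulated 90 min at 37 C in HBSS/10 mM HEPES/0.1% Tween-20 buffer; beta-galactosidase complementation read by luminescence after 1 h at ambient temperature. Dopamine 57 uM final (EC100) as control.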
* = called active by the depositor; ? = inconclusive; / = not tested or not shown; [ ] = dose if it differs, or a comment.

SMILES	gsp ag	ClpP mod	gsp antagonist	Menin MLL FP FL	PINK1 modulator	Sfp PPTase inh	D2 ag
O=C(NC(=S)NCc1ccccc1)c1cccnc1	-0.2%	/	3.7%	2.4	-0.7%	3.4%	0.6
Cn1cccc1C(=O)NC(=O)COC(=O)C12CC3CC(CC(O)(C3)C1)C2	1.7%	13.2%	1.7%	-5.2	1.5%	-10.2%	0.6
O=C(CC(=O)c1ccccc1)Nc1ccccc1	-2.6%[15.4 µM]	/	6.5%	/	3.6%	/	-0.5
CC(=O)NCCC(=O)Nc1sc2c(c1-c1nc3ccccc3[nH]1)CCCC2	-7.6%	?	-32.9%	3.4	0.1%	?	-0.4
O=C(OC(C(=O)c1c[nH]c2ccccc12)c1ccccc1)c1cnccn1 (stereo not drawn)	15.8%	-2.8%	-9.6%	4.6	-0.3%	3.1%	-1.5
CCN(CC(=O)NCc1cccs1)C(=O)c1ccccc1F	-7.4%	1.7%	-21.9%	5.7	0.1%	13.9%	1.4
CCC1CCCCN1C(=S)NC(=O)c1ccc([N+](=O)[O-])cc1 (stereo not drawn)	2.9%	0.8%	5.2%	-0.8	-0.1%	-7.5%	-1.5
Cc1coc2cc3oc(=O)ccc3cc12	4.6%	-3.8%	8.3%	6.3	0.2%	12.4%	3.8
CC(C)[C@H](NS(=O)(=O)c1ccccc1)C(=O)OCC(=O)NC(=O)c1cccn1C	-2.2%	-0.2%	-16.0%	0.1	-0.3%	-0.2%	-1.1
COc1ccc2[nH]cc(C(=O)CN3CCCC(C)C3)c2c1 (stereo not drawn)	-7.4%	-1.4%	12.8%	1.4	-2.7%	9.6%	-0.8
NS(=O)(=O)c1cccc(NC(=O)CSc2n[nH]c(-c3ccccc3Br)n2)c1	0.2%	-1.9%	-3.3%	/	1.3%	/	0.7
CCOc1ccc(CN2CCN(Cc3cc4ccccc4o3)CC2CCO)cc1 (stereo not drawn)	1.5%	-0.9%	4.3%	-2.6	-0.8%	-6.3%	-5.2
CC(=O)Nc1sc(C)c(C)c1C(=O)OCC(=O)N(CC(C)C)c1c(N)n(Cc2ccccc2)c(=O)[nH]c1=O	-35.4%[15.4 µM]	/	-0.7%	/	-3.7%	/	-0.1
O=C(Nc1c(-c2ccccc2)nc2ccccn12)c1ccccc1	-1.2%[15.4 µM]	0.5%	-1.1%	-12.1	0.6%	15.8%	-1.6
CCOc1ccc(-n2ccn(CC(=O)NCCc3ccccc3)c(=O)c2=O)cc1	9.7%	?	11.5%	/	-1.1%	/	0.4
O=C(COc1ccccc1)NNC(=O)COc1ccc([N+](=O)[O-])cc1	8.1%[15.4 µM]	/	-7.7%	1.8	4.3%	16.4%	-0.6
Cc1ccc(-c2nnc(SCC(=O)OC(C)C)n2N)cc1	0.0%	0.3%	6.6%	4.6	/	-1.9%	-1.6
CN(Cc1ccccc1)CC1CCCN(CCc2ccccc2F)C1 (stereo not drawn)	-25.8%	/	5.1%	-1.1	3.6%	5.9%	2.2
COc1cc(Cl)c(C)cc1NC(=O)CSc1nnc(-c2ccco2)n1CC(C)C	-0.5%	-1.5%	-7.6%	-1.3	-1.3%	44.7µM*	-2.7
Nc1c(S(=O)(=O)c2ccccc2)c2nc3ccccc3nc2n1C1CC1	-3.8%[15.4 µM]	/	-7.8%	-2.0	11.2%	10.6%	-2.6
O=C(/C=C1\NC2(CCCC2)Cc2ccccc21)N1CCOCC1	15.6%	-2.5%	-11.3%	1.9	-0.5%	?	0.4
CCCCN(C(=O)CCN1C(=O)C2CC=CCC2C1=O)c1c(N)n(CCCC)c(=O)[nH]c1=O (stereo not drawn)	10.1%	2.3%	12.1%	/	0.2%	/	-2.3
CC(=O)N/C(=C\c1ccccc1)C(=O)OCC(=O)c1ccc(F)cc1	-2.6%[15.4 µM]	-0.2%	5.2%	/	0.8%	/	-4.1
Cc1ccc(Sc2ncccc2C(=O)N(C)Cc2cccs2)c(C)c1	-1.3%[15.4 µM]	/	6.0%	1.7	1.9%	-2.1%	0.1
O=C(COc1cccc2cccnc12)Nc1ccccc1	-16.1%[15.4 µM]	/	9.8%	-1.7	2.3%	-0.8%	-4.2
Additional structures follow:
SMILES	gsp ag	ClpP mod	gsp antagonist	Menin MLL FP FL	PINK1 modulator	Sfp PPTase inh	D2 ag
CCOc1ccc(/C=C/C(=O)c2ccccc2)cc1	-8.7%	-1.2%	-2.5%	-12.9	2.5%	-20.2%	-9.2
O=C(CNC(=O)C1CCCCC1)Nc1cc(Cl)ccc1Cl	-3.6%	-4.9%	1.2%	3.5	-1.9%	17.5%	-2.6
Cc1ccc(C(=O)N2CCC(C(=O)NC3CCCCCC3)CC2)cc1	?	/	8.6%	3.3	-0.4%	3.4%	5.9
O=C(COC(=O)c1ccc2c(c1)S(=O)(=O)N=C1CCCCCN12)NCc1cccs1	?	11.0%	-7.1%	0.3	2.4%	11.9%	0.0
O=c1nc(Nc2ccccc2)sc2ccc([N+](=O)[O-])cc12	6.0%	-4.2%	7.0%	5.7	-1.1%	2.1%	1.0
Cc1ccccc1Nc1nc(N)nc(CN2CCN(Cc3ccc4c(c3)OCO4)CC2)n1	-9.4%[15.4 µM]	-0.4%	10.4%	-3.5	-1.0%	-0.8%	-0.1
CCN(c1cccc(C)c1)S(=O)(=O)c1cccc2nsnc12	9.2%[15.4 µM]	2.0%	-1.2%	1.8	-1.0%	-7.9%	-2.5
CN(C1=C(NC(=O)c2ccc(Cl)cc2)C(=O)c2ccccc2C1=O)c1ccccc1	-0.6%	-1.9%	-7.1%	5.3	1.6%	-4.4%	-4.5
Cc1ccc(S(=O)(=O)NCCC(=O)Nc2ccc(Cl)c(Cl)c2)cc1	-7.5%	-1.9%	?	-2.9	0.7%	15.9%	0.1
CCN1CCN(S(=O)(=O)c2ccc(Cl)c(C(=O)N(CC)Cc3ccccc3)c2)CC1	18.3%	-2.9%	-1.9%	/	1.4%	/	-6.6
COc1ccc(-c2cc3c(=O)n(CC(=O)NCc4ccc(Cl)cc4)ncn3n2)cc1	-34.0%[inhibitor]	-15.7%	-1.0%	-1.1	3.0%	-2.8%	-4.5
CCOC(=O)c1cc(-c2ccccc2C)n(Cc2cc(C)no2)n1	/	-2.1%	-11.5%	/	-0.4%	/	10.0
CC(C)c1ccc(NC(=O)CCNS(=O)(=O)c2cc(Br)cnc2N)cc1	13.5%	-21.4%	-13.7%	2.4	1.8%	22.9%	5.0
O=C(N/N=C/c1ccc(COc2ccc(Br)cc2)o1)c1ccco1	7.2%	-2.3%	-16.5%	2.5	11.4%	30.9%[activator]	0.5
C#CCOCCOCCOCCNc1nc(N2CCN(C(=O)CCCCCCCCCCNC(=O)[C@H](CCCCN)n3cc(CCO)nn3)CC2)nc(N2CCN(C(=O)CCCCCCCCCCNC(=O)[C@H](CCCCN)n3cc(C[C@@H](C)CC)nn3)CC2)n1	/	0.7%	-20.6%	/	-1.6%	/	0.9
Cc1c(C)c(C)c(S(=O)(=O)N2CCSCC2)c(C)c1C	-1.0%	1.0%	?	-0.6	2.0%	2.7%	-1.0
Cc1nnc(-c2cnn(C)c2N)n1CCCN1CCOCC1	11.2%	/	1.6%	-6.4	-0.4%	17.5%	-4.6
CCOc1ccc2[nH]c(=O)c(CN(Cc3ccc(F)cc3)C(=O)N3CCCC3)cc2c1	?	-14.1%	31.9%	?	4.6%	17.9%	-1.2
CCS(=O)(=O)N1CCC(C(=O)N2CCc3ccccc3C2)CC1	19.3%	-2.7%	12.2%	-0.7	-0.2%	11.0%	-3.1
CC(=O)N1CCC(N(CCCOC(C)C)S(=O)(=O)c2ccc([N+](=O)[O-])cc2)CC1	1.8%	1.3%	6.1%	-4.0	0.6%	4.3%	7.2
Cn1c(=O)n(CCc2ccccc2)c(=O)c2c1nc1n2CCCN1Cc1ccccc1	?	-1.2%	?	3.4	1.2%	-8.2%	1.6
O=C(NNc1ccccc1)/C(=C\c1cccnc1)NC(=O)c1ccccc1	2.2%	-0.5%	4.3%	3.1	1.7%	17.3%	-5.5
COc1ccc(C2CC(c3ccccc3)=NN2C(=O)COC(=O)c2cccnc2)cc1 (stereo not drawn)	-0.2%	0.5%	-8.7%	3.8	-1.6%	-17.4%	-3.5
COCCNC(=O)CSc1nc2ccccc2c(=O)n1-c1cccc(OC)c1	-24.4%	-0.9%	-10.6%	0.8	1.2%[38.3 µM]	2.9%	-3.1
CCn1c(=O)c2ccccc2n(CC(=O)N2CCCc3ccccc32)c1=O	-24.3%	-3.5%	-4.4%	/	1.1%	1.5%	-3.6
Next section
SMILES	gsp ag	ClpP mod	gsp antagonist	Menin MLL FP FL	PINK1 modulator	Sfp PPTase inh	D2 ag
CN(C)CCCn1c2c(c(SCC(=O)Nc3ccc4c(c3)OCCO4)nc1=O)CCC2	7.1%	2.1%	11.8%	/	-2.7%	/	-7.8
COc1ccccc1NC(=O)Cc1csc(NC(=S)Nc2ccccc2)n1	17.7%	-2.4%	?	1.7	10.2%[38.3 µM]	-4.9%	-2.7
NC(=O)c1ncc(C(F)(F)F)cc1Oc1ccc(F)cc1	-2.8%	1.2%	-8.7%	3.7	1.1%	24.1%	-1.1
CC(NC(=O)c1ccccc1)c1ccc(F)cc1 (stereo not drawn)	-28.8%	0.1%	11.6%	3.2	0.8%	3.2%	-0.3
Cc1ccc(-c2nn(-c3cc(Cl)ccc3[N+](=O)[O-])c(=O)c3ccccc23)cc1C	-14.9%	-2.9%	-11.1%	-0.8	-1.9%	-16.2%	-0.3
CCCCCOC(=O)Cc1c(O)c2ccccc2n(C)c1=O	-11.5%	28.2µM*	-17.8%	2.2	-2.2%	-2.8%	-4.2
CCN(/N=C/C=C/c1ccccc1)c1cc(=O)n(C)c(=O)[nH]1	?	/	-8.8%	1.4	1.0%	-28.2%	-3.4
Cc1ccc(C(=O)Nc2ccc3c(c2)C(=O)N(CC2CCCO2)C3=O)cc1 (stereo not drawn)	10.6%[15.4 µM]	0.4%	2.9%	/	3.2%	6.8%	0.0
COc1ccc(C)cc1/C=C/C(=O)N1CCN(S(=O)(=O)c2cccs2)CC1	12.1%	0.5%	/	/	1.9%	/	2.6
